Mtb H37Rv – M. tuberculosis H37Rv growth inhibitors, H37Rv strain (AID 1626); M. tuberculosis H37Rv growth inhibition; higher % means a stronger effect; one-dose inhibition, % at 10 µM; IC50 in µM for titrated hits; 220,000 compounds, 0.95% hits;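 active means confirmed in a dose series; inconclusive means inhibition above 80% but not taken into the dose series; inactive means below 80% or under 30% at every dose of the series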;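 further: bacteria incubated seven days before Alamar blue readout; 0% = bacteria only wells and 100% = bacteria with antibiotic wells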
Mtb betalactam – beta-lactam sensitization of Mtb H37Rv; M. tuberculosis H37Rv growth with meropenem, percent inhibition; hits of this screen are not shown here; inhibition, % at 25 µM; 330,000 compounds, 0.27% hits; AID 434955;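 active means about 74% or more and at least 40 points above the plate without the antibiotic, then above 30% in a dose series; inconclusive means first-round hits that could not be retested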;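 further: growth measured after seven days incubation then overnight dye step; 0% = bacteria only wells and 100% = bacteria with antibiotic; twin plates without the antibiotic show which effects depend on it; some results filed as inactive read as strong as hits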
Arbovirus anti – blocks arbovirus infection. inhibition, % at 10 µM. 200,000 compounds, 0.37% hits. arbovirus infection cell-based antiviral screen. AID 1251;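 active means inhibition from about 30%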;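 further: bluetongue infection of BSR cells; cell survival read as ATP light after 72 h; 0% = infected wells without compound and 100% = uninfected wells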
RecA intein inh – blocks M. tuberculosis RecA intein splicing | cell-free RecA intein splicing, fluorescence | 290,000 compounds, 0.75% hits | inhibition, %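 (about 9 µM by stock and volumes)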; in the data active means inhibition above about 30%; inconclusive means no clear call, values can overlap the other calls;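 further: 0% = vehicle wells and 100% = reference inhibitor control wells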
Target sequence (P9WHJ3 whole entry, looked up): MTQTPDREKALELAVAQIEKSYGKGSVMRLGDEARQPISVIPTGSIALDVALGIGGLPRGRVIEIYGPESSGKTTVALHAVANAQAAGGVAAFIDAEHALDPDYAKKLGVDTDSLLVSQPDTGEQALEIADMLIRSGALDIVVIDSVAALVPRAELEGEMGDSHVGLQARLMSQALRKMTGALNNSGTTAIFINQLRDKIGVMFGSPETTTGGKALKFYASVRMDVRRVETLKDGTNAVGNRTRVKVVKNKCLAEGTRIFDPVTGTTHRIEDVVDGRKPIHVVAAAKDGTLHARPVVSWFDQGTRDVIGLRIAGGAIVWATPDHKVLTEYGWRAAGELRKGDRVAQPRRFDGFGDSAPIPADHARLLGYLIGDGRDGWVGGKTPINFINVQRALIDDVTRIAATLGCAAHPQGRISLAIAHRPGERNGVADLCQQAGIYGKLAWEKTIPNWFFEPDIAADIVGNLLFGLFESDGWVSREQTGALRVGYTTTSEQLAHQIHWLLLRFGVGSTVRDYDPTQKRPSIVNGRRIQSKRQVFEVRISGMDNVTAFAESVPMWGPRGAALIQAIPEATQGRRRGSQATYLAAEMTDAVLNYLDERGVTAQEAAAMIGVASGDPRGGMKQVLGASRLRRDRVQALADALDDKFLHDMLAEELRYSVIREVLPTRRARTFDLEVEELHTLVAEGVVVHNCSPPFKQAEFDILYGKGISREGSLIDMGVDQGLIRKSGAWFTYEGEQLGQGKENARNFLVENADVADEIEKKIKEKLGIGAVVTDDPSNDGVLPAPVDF
YopH PTP inh – YopH (Yersinia) phosphatase inhibition; fluorescence Ex485/Em525; inhibition, %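 (about 10 µM by stock and volumes)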; 140,000 compounds, 0.16% hits; AID 898;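 active means inhibition of 50% or more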;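 further: controls were vehicle for no effect and minimum signal wells for full effect; inactives centre near -20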
Arbovirus anti repeat – recorded beside Arbovirus anti, whose call it bears; inhibition, %; measured here: 10K subset replicate screen; many hits read low in the repeat;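 first of two repeat runs on a subset; 0% = infected and 100% = uninfected wells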
Active calls of the source: *; ? = inconclusive; · = no result given.

The first four records (preview)
SMILES	Mtb H37Rv	Mtb betalactam	Arbovirus anti	RecA intein inh	YopH PTP inh	others
COc1ccccc1C(c1nnnn1CCc1ccccc1)N1CCN(c2ccccc2)CC1 (configuration not stated)	13%	-7	4	9.8	-33
O=C(Cn1c(NCCCO)nc2ccccc21)c1cccc(Br)c1	-9%	-2	2	1.7	-52
NC(=O)CC(NC(=O)c1ccccc1)c1ccc(N2CCCCCC2)c([N+](=O)[O-])c1 (configuration not stated)	·	-12	·	0.0	·
Cc1cn(CC(=O)c2ccccc2)c2ccccc12	·	83	·	0.2	·

This part in full, previewed entries included:
SMILES	Mtb H37Rv	Mtb betalactam	Arbovirus anti	RecA intein inh	YopH PTP inh	others
COc1ccccc1C(c1nnnn1CCc1ccccc1)N1CCN(c2ccccc2)CC1 (configuration not stated)	13%	-7	4	9.8	-33
O=C(Cn1c(NCCCO)nc2ccccc21)c1cccc(Br)c1	-9%	-2	2	1.7	-52
NC(=O)CC(NC(=O)c1ccccc1)c1ccc(N2CCCCCC2)c([N+](=O)[O-])c1 (configuration not stated)	·	-12	·	0.0	·
Cc1cn(CC(=O)c2ccccc2)c2ccccc12	·	83	·	0.2	·
CC(=O)CC(=O)Nc1ccccc1NC(C)=O	-8%	-10	3	-1.9	-28
COc1ccc(CNC(=O)CN(c2ccc(C)cc2)S(=O)(=O)c2c(C)noc2C)cc1	·	0	·	-1.8	·
CCc1ccc(OCCNC(=O)c2ccccc2SCc2ccc(F)cc2)cc1	·	3	2	-2.4	-28
CCN1CCN(CC(O)COCC2COc3ccccc3O2)CC1 (configuration not stated)	-1%	-9	1	0.3	·
O=C(c1cc(COc2ccc(F)c(F)c2)on1)N1CCN(C2CCCCC2)C(=O)C1	·	3	·	-2.5	·
NS(=O)(=O)c1ccc(CCNc2cc(=O)n(Cc3ccc(F)cc3)c(=O)[nH]2)cc1	-1%	-12	-6	·	-5
CN(C)CCNC(=O)c1onc(CSc2ccc(F)cc2)c1C(=O)NCCN(C)C	2%	-5	·	-0.6	·
O=C(c1ccccc1[N+](=O)[O-])N1CCCC(C(=O)N2CCCCCC2)C1 (configuration not stated)	·	-4	·	-4.0	·
O=C(Nc1nc(-c2ccc3c(c2)OCCO3)cs1)c1ccco1	·	?	·	-3.0	·
C[C@@H]1NC(=O)c2cc([N+](=O)[O-])cc(I)c2OCC[C@@H](C(N)=O)NC(=O)[C@H](CCC(=O)O)NC1=O	-12%	·	-2	·	-33
CC(/C=N\NC(=O)c1cc(C)oc1C)=C\c1ccccc1	-8%	-1	-3	2.2	-30
C=CCn1c(SCC(=O)NC2CCCCC2)nnc1-c1ccccn1	·	-9	·	0.5	·
CCCCCN(C(=O)CCC(=O)OCc1ccccc1C(F)(F)F)c1c(N)n(CCCC)c(=O)[nH]c1=O	·	-4	·	3.0	·
CCOC(=O)c1c(NC(=O)CSc2nnc(-c3ccc(Cl)cc3)o2)sc2c1CCC2	·	98	·	0.4	·
Cc1nn2c3ccccc3nc2n(C)c1=O	2%	·	3	-6.4	-33
CCC(C)NC(=O)C1CCN(c2nc(C)cc(C)n2)CC1 (configuration not stated)	-3%	-14	1	-3.0	-25
Cc1cc(C)n2nc(SCC(=O)N(C)c3ccccc3)nc2n1	-5%	4	2	0.7	15
Clc1cc(-c2ccccc2)nc(-c2ccccc2)n1	·	0	·	9.1	·
CC(SC1=NCCS1)C(=O)Nc1nnc(-c2ccc(F)cc2)s1 (configuration not stated)	9%	-3	11	2.8	-48
CCOC(=O)CN1C(=O)C(=O)N(Cc2ccccc2)C1=O	·	-5	·	-3.6	·
COc1ccc(C(=O)N2N=C(c3cccc(OC)c3)CC2(O)C(F)(F)F)cc1 (configuration not stated)	8%	59	7	1.0	-16
COc1ccccc1CO/N=C/NC(=O)c1c(OC)ccnc1Oc1ccc(F)cc1	-2%	9	5	0.1	-40
Cc1ccc(NC(=O)COC(=O)COc2ccc(Cl)cc2C)c([N+](=O)[O-])c1	0%	-2	-2	-0.4	-30
COc1cccc(-c2nc(CSCC(=O)N3CCc4ccccc43)c(C)o2)c1	-5%	-3	3	-2.5	-35
Cc1ccc(-n2nc3c(c2NC(=O)c2ccco2)CS(=O)C3)cc1 (configuration not stated)	·	6	·	0.8	·
O=c1cccc2n1CC1CC2CN(S(=O)(=O)c2cc(Cl)ccc2Cl)C1 (configuration not stated)	·	-2	·	-1.7	·
CC(C)(C)C1CCC(=NNC(=O)CN(c2ccccc2)S(C)(=O)=O)CC1 (configuration not stated)	1%	-2	6	-4.2	-28
COc1ccc2[nH]c3c(=O)n(CCCCC(=O)N4CCCC4)c(=S)[nH]c3c2c1	-2%	-8	-4	-2.9	-8
CCCC(=O)Nc1cc(-c2nn(C)c(=O)c3ccccc23)ccc1N1CCOCC1	-7%	5	-9	0.7	-15
COc1ccc(-c2nc(C(N)=O)c3[nH]c(=O)n(-c4cccc(Cl)c4)c3n2)cc1OC	·	·	-40	-1.6	8
O=C(O)c1ccc(Nc2ccc(F)c(F)c2)c([N+](=O)[O-])c1	·	1	·	-7.0	·
CC1CCCN(c2nc(NCc3ccco3)nc(N)c2[N+](=O)[O-])C1 (configuration not stated)	0%	7	15	4.3	-19
Cc1ccc(-c2csc(N(CCc3ccccc3)C(=O)COc3ccccc3)n2)cc1	-8%	0	-6	2.0	-47
Cc1cc(C)cc(-n2ncc3c2CCCC3NC(=O)C2CCC2)c1 (configuration not stated)	·	8	·	1.1	·
COc1ccc(-n2c3c(c(=O)[nH]c2=O)C(NC(C)=O)(C(F)(F)F)C(=O)N3)cc1 (configuration not stated)	-5%	1	9	-2.7	·
CCOC(=O)Cc1csc(NC(=O)c2ccc(C)o2)n1	-1%	3	-5	-3.7	-23
Cn1cccc1C(=O)C(=O)Nc1cccc(Cl)c1Cl	3%	18	-11	-0.1	10
Cn1ncc(N=Cc2ccccc2)c1C(=O)Nc1cccc(Cl)c1	·	0	-13	1.8	-36
CC(C)c1ccc(CNc2ccc(N3CCOCC3)cc2)cc1	-9%	3	-6	-0.1	4
Cc1ccc(NC(=O)CSC2=Nc3ccccc3C3CC=NN23)c(C)c1 (configuration not stated)	4%	9	-2	-2.3	-4
COC(=O)Cc1ccc(O)c(N)c1	-2%	4	0	-5.2	·
CC(=O)C1=C(C)NC(=O)NC1c1ccc(OC2CCCC2)cc1 (configuration not stated)	2%	-5	2	1.4	11
Cc1nc(NC(C)C)c2cnn(CCc3ccccc3)c2n1	0%	0	3	0.9	-8
CCSc1nnc(Cc2cc(=O)[nH]c(=O)[nH]2)n1-c1cccc(C)c1	2%	-3	-2	-0.4	·	Arbovirus anti repeat=0
O=C(NC1CCN(Cc2ccccc2)CC1)C1CCN(S(=O)(=O)c2cccc3cccnc23)CC1	-3%	1	-3	0.7	-22	Arbovirus anti repeat=4
CCNC(C(=O)c1c[nH]c2c(CC)cccc12)c1ccccc1 (configuration not stated)	·	1	·	0.1	·

New compounds follow.
SMILES	Mtb H37Rv	Mtb betalactam	Arbovirus anti	RecA intein inh	YopH PTP inh	others
Cc1cc(F)ccc1NC(=O)c1cc(S(=O)(=O)N2CCCC2)cn1C	·	3	·	-1.7	·
O=C(NCCCNC(=O)c1ccccn1)c1ccccn1	-10%	-4	4	-0.1	0
CC(C)c1ccc(NC(=O)[C@H]2CSCN2C(=O)[C@@H]2CCC(=O)N2)cc1	·	5	·	-2.5	·
O=C(CSc1nc(C(F)(F)F)cc(=O)[nH]1)N1CCCCCC1	·	-1	·	-0.4	·
COc1cc(NC(=O)c2ccc(CNc3c(N4CCOCC4)c(=O)c3=O)cc2)cc(OC)c1	2%	-6	-4	1.7	-23
O=C(c1cccnc1)n1nc(-c2ccco2)nc1NCc1cccs1	-3%	·	-4	6.4	·
O=C(COc1ccc2c(c1)OCO2)Nc1nccs1	·	0	·	-1.7	·
C/C(=C\c1ccco1)C1Nc2cccc3cccc(c23)N1	4%	9	9	-2.3	21
COCCCNC(=O)C1CCC(=O)N(c2ccc3c(c2)OCO3)C1c1ccc(OC)cc1 (configuration not stated)	·	-3	·	-0.8	·
Cc1ccc(C(=O)NCC(=O)N2CCN(c3ccccc3)CC2)cc1	·	10	·	-4.1	·
CN(C)S(=O)(=O)N1CCN(S(=O)(=O)N2CCOCC2)CC1	6%	2	12	-3.5	·
O=C(c1ccco1)N(c1ccccn1)c1ccccn1	-4%	3	-1	-1.8	0
CC(C)(C)C(=O)NNC(=O)c1ccc(Oc2cc(Cl)cc(Cl)c2)o1	6%	5	·	-0.9	·
COC(=O)C1=C(C)NC2=C(C(=O)CCC2)C1c1ccsc1 (configuration not stated)	-10%	·	2	-8.6	-40
Cc1cc(NS(=O)(=O)c2ccc(NC(=O)C(C)Oc3ccc4c(C)cc(=O)oc4c3)cc2)no1 (configuration not stated)	-14%	-7	5	·	-28
CCOC(=O)c1ccccc1NC(=O)c1cn(-c2ccc(C)c(C)c2)c(=O)c2ccccc12	22%	20	0	1.7	-36
O=P(Nc1ccccc1)(Oc1ccccc1)Oc1ccccc1	9%	5	·	0.7	·
COc1cccc(-c2nc(CS(=O)(=O)CC(=O)NC3CCC(C)CC3)c(C)o2)c1 (configuration not stated)	·	1	·	1.9	·
CC(=O)Nc1cccc(NC(=O)CSc2ccc3nnc(CCNC(=O)c4ccccc4)n3n2)c1	6%	-10	1	0.8	·
O=C(NCc1cccs1)C1CCCN1C(=O)Nc1cccc(F)c1 (configuration not stated)	2%	-9	4	-1.0	·

Random excerpt: four compounds from above
SMILES	Mtb H37Rv	Mtb betalactam	Arbovirus anti	RecA intein inh	YopH PTP inh	others
CN(C)S(=O)(=O)N1CCN(S(=O)(=O)N2CCOCC2)CC1	6%	2	12	-3.5	·
CC(=O)Nc1cccc(NC(=O)CSc2ccc3nnc(CCNC(=O)c4ccccc4)n3n2)c1	6%	-10	1	0.8	·
O=P(Nc1ccccc1)(Oc1ccccc1)Oc1ccccc1	9%	5	·	0.7	·
CCOC(=O)c1ccccc1NC(=O)c1cn(-c2ccc(C)c(C)c2)c(=O)c2ccccc12	22%	20	0	1.7	-36

The list goes on.
SMILES	Mtb H37Rv	Mtb betalactam	Arbovirus anti	RecA intein inh	YopH PTP inh	others
Cc1ccc(C(=O)N2CCCC(CCC(=O)N3CCN(c4ccccn4)CC3)C2)cc1 (configuration not stated)	·	-3	·	-0.4	·
CCC1CCCCN1CCCNC(=O)CN1C(=O)c2cccnc2Oc2ccc(C)cc21 (configuration not stated)	·	?	·	-0.8	·
O=C(Cc1ccc(NC2=NC3CS(=O)(=O)CC3S2)cc1)NCc1ccccc1Cl (configuration not stated)	·	-9	·	-3.6	·
CCOc1ccc(NC(=S)NCc2nc3ccccc3[nH]2)cc1	6%	-1	-1	0.4	·
O=C(NCCN1CCOCC1)c1cc(-c2ccc(Br)cc2)on1	-8%	-7	2	1.0	-8
CCc1nc2sc3ccccc3c(=O)c2c(=O)n1CCOC	-4%	1	-2	1.0	-41
O=C(NCC1(c2ccccc2)CCCC1)c1ccc(Br)o1	5%	2	10	2.9	-14
N#Cc1c(N)n[nH]c1CCCN	-6%	-5	2	0.9	2
Cc1cc(C)c(NC(=O)Cc2ccc(-n3cccc3)cc2)c(C)c1	2%	3	-4	-0.7	-25
O=S(=O)(c1ccccc1F)N1CCN(c2nc3ccccc3s2)CC1	7%	6	3	-1.6	·
O=C(CN1CCN(Cc2ccccc2)CC1)N1CCCc2c1c(=O)oc1ccc(O)cc21	·	97	8	4.1	18
CC1=C(C(=O)OC(C)C)C(c2cccs2)N2C(=O)C(C)SC2=N1 (configuration not stated)	5%	-6	-2	-0.6	6
Cc1ccc(Cn2nc(C)c3cc(C(=O)OCC(N)=O)sc32)cc1	-3%	-14	-7	-4.1	0
CCCn1nnnc1SCC(=O)N1CCCCC1	·	-4	·	-3.9	·
COc1ccc(C2=CSC3=NNC4(CCCCC4)NN23)cc1	5%	4	-29	1.3	·
O=c1c2ccsc2ncn1Cc1ccccc1F	2%	-6	-4	·	-23
O=C(O)c1cccc(NC2=Nc3cccc4cccc2c34)c1	-7%	-7	·	-3.0	·
COc1cccc(OCCNC(=O)c2ccc(C)cc2)c1	·	-2	·	0.1	·
CCS(=O)(=O)NCCNc1ccc([N+](=O)[O-])cc1	-1%	-13	-4	2.7	·
S=C(Nc1ccccc1)Nc1ccc(OCc2ccccc2)cc1	14%	67	-19	0.5	-29
COc1ccc(OC)c(-n2c(-c3ccc(C)cc3)n[nH]c2=S)c1	0%	-7	-6	-2.7	25
COCCn1c(SCC(=O)Nc2cc(C)on2)nnc1-c1c[nH]c2ccccc12	3%	0	4	0.4	·
COc1ccccc1N(C)S(=O)(=O)c1ccc(C(=O)Nc2nc(C)cs2)cc1	10%	14	-7	4.2	·
CCOC(=O)N1CCN(C(=O)c2noc3c2COc2ccccc2-3)CC1	·	2	·	-0.7	·
O=C(CSc1nc(-c2ccccc2)cc(=O)[nH]1)Nc1ccccc1F	·	6	·	0.3	·

Compound activity from PubChem BioAssay.

Only part of the results is shown; the hit share may differ from the screen's.
